# Mtb H37Rv – M. tuberculosis H37Rv growth inhibitors, H37Rv strain (AID 1626); one-dose inhibition, % at 10 µM; IC50 in µM for titrated hits; M. tuberculosis H37Rv growth inhibition; higher % means a stronger effect; 0.95% of 220,000 active;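 active = confirmed in a dose series; inconclusive = inhibition above 80% but not taken into the dose series; inactive = below 80% or under 30% at every dose of the series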;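 note: bacteria incubated seven days before Alamar blue readout; 0% = bacteria only wells and 100% = bacteria with antibiotic wells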
# Mtb bLac sens – beta-lactam sensitization of Mtb H37Rv; 0.27% of 330,000 active; M. tuberculosis H37Rv growth with meropenem, percent inhibition; hits of this screen are not shown here; inhibition, % at 25 µM; AID 434955;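 active = about 74% or more and at least 40 points above the plate without the antibiotic, then above 30% in a dose series; inconclusive = first-round hits that could not be retested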;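 note: growth measured after seven days incubation then overnight dye step; 0% = bacteria only wells and 100% = bacteria with antibiotic; twin plates without the antibiotic show which effects depend on it; some results filed as inactive read as strong as hits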
# YopH inh – YopH (Yersinia) phosphatase inhibition. fluorescence Ex485/Em525. inhibition, %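 (about 10 µM by stock and volumes)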. 0.16% of 140,000 active. AID 898;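 active = inhibition of 50% or more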;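 note: controls were vehicle for no effect and minimum signal wells for full effect; inactives centre near -20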
# RecA intein inh – blocks M. tuberculosis RecA intein splicing; inhibition, %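 (about 9 µM by stock and volumes)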; 0.75% of 290,000 active; P9WHJ3; cell-free RecA intein splicing, fluorescence; AID 2221; in the data active = inhibition above about 30%; inconclusive = no clear call, values can overlap the other calls;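 note: 0% = vehicle wells and 100% = reference inhibitor control wells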
# Target sequence (P9WHJ3 whole entry, looked up): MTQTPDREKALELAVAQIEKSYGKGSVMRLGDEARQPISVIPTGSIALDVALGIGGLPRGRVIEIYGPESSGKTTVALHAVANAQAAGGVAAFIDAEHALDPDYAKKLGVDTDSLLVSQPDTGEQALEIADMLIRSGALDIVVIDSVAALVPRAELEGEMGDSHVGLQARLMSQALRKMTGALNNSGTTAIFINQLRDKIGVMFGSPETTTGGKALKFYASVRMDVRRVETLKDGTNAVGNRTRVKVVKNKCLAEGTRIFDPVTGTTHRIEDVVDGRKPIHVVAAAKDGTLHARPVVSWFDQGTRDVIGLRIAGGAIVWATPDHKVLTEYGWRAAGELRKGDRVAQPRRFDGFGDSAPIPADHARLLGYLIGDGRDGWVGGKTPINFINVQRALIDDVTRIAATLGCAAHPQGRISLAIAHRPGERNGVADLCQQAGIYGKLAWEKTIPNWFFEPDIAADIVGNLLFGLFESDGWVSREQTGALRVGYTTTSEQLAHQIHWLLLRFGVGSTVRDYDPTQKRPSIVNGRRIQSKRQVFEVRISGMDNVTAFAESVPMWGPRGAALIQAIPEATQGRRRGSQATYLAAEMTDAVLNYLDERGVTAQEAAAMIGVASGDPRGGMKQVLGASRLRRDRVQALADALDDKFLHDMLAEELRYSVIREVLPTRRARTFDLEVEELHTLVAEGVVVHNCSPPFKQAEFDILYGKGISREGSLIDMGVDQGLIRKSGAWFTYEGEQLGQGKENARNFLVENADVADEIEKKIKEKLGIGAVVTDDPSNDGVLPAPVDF
# Arbovirus inh – antivirals against arbovirus infection; 0.37% of 200,000 active; arbovirus infection cell-based antiviral screen; inhibition, % at 10 µM;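 active = inhibition from about 30%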;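 note: bluetongue infection of BSR cells; cell survival read as ATP light after 72 h; 0% = infected wells without compound and 100% = uninfected wells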
# Arbovirus inh repeat – second read-out of Arbovirus inh, no call of its own (marks repeat the call); inhibition, %; measured here: 10K subset replicate screen; many hits read low in the repeat;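 first of two repeat runs on a subset; 0% = infected and 100% = uninfected wells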
# Numbers without * were called inactive; ? = inconclusive; · = not tested or not shown.
# Preview (4 entries):
SMILES,Mtb H37Rv,Mtb bLac sens,YopH inh,RecA intein inh,Arbovirus inh,others
CCn1c(SCC(=O)NNC(=O)c2ccc(OC)cc2)nnc1-c1cccnc1,2%,0,·,3.1,-2,
CCC(CC)C(=O)Nc1cc([N+](=O)[O-])ccc1Cl,6%,-3,-9,-0.5,-2,
CS(=O)(=O)c1ccc2nc(NC(=O)c3cccc(NS(=O)(=O)c4ccc(F)c(F)c4)c3)sc2c1,9%,56,-16,-1.3,65*,
COc1ccc(C(c2c(C)n(C)n(-c3ccccc3)c2=O)c2c(C)n(C)n(-c3ccccc3)c2=O)cc1,·,4,·,0.0,·,

# The list itself, from the first entry:
SMILES,Mtb H37Rv,Mtb bLac sens,YopH inh,RecA intein inh,Arbovirus inh,others
CCn1c(SCC(=O)NNC(=O)c2ccc(OC)cc2)nnc1-c1cccnc1,2%,0,·,3.1,-2,
CCC(CC)C(=O)Nc1cc([N+](=O)[O-])ccc1Cl,6%,-3,-9,-0.5,-2,
CS(=O)(=O)c1ccc2nc(NC(=O)c3cccc(NS(=O)(=O)c4ccc(F)c(F)c4)c3)sc2c1,9%,56,-16,-1.3,65*,
COc1ccc(C(c2c(C)n(C)n(-c3ccccc3)c2=O)c2c(C)n(C)n(-c3ccccc3)c2=O)cc1,·,4,·,0.0,·,
Cc1ccc2nc(NC(=O)C3CC(=O)N(Cc4ccco4)C3)sc2c1 (stereo not drawn),7%,-3,·,-0.2,3,
Cc1nn(-c2ccccc2)c2c1c(C)c(CCC(=O)NCC1CCCO1)c(=O)n2C (stereo not drawn),·,0,·,0.5,·,
Cc1cccc(C)c1OCC(=O)Nc1cccc(C(=O)O)c1,-1%,3,·,-0.1,9,
CCOc1cc(CN2CCN(C(=O)c3cccc4ccccc34)CC2)ccc1OC,·,-3,·,2.4,·,
NC(=O)COC(=O)Cc1coc2cc3c(cc12)CCC3,1%,2,·,·,3,
CS(=O)(=O)N1CCN(c2ccccc2NC(=O)c2cccc3ccccc23)CC1,7%,-10,40,1.7,3,
CC1CCCCC1NC(=O)COn1nnc2ccc(Cl)cc21 (stereo not drawn),-14%,1,-6,-0.2,0,
O=C(Oc1ccccc1)c1cccc2cccnc12,?,100,-4,-1.0,12,
Cc1ccccc1/C=N/NC(=O)c1sccc1C,10%,-6,-18,1.7,-2,
Cc1ccc(C(C(=O)NC2CCCCC2)N(CC2CCCO2)C(=O)CNC(=O)c2ccco2)cc1 (stereo not drawn),-2%,-16,-11,0.0,4,
CCn1c(=O)c(C(=O)NCCc2ccc(OC)c(OC)c2)c(O)c2ccccc21,·,?,·,4.2,·,
CC(C)N1CCC2(CC1)Oc1ccc(Br)cc1C1CC(c3cccnc3)=NN12 (stereo not drawn),-4%,2,·,-0.3,·,
O=C(Nc1nnc(CC(=O)N2CCOCC2)s1)C1COc2ccccc2O1 (stereo not drawn),-6%,-6,-35,-2.0,15,
O=C(O)CNC(=O)C1COc2ccccc2O1 (stereo not drawn),0%,-5,27,0.9,3,
O=C(NCCc1ccccc1)[C@@H]1CC=C[C@@H]2CCN(C3CCCCC3)C(=O)[C@@H]21,3%,4,·,0.5,·,
O=C(CSc1nnc(CNC(=O)c2ccccc2F)o1)Nc1cccc(C(F)(F)F)c1,·,-3,·,-9.3,·,
Cc1c(C)c2ccc(OC(C)C(=O)N[C@@H](Cc3c[nH]c4ccccc34)C(=O)O)c(C)c2oc1=O (stereo partly drawn),·,-2,·,-0.6,·,
CC(=O)N1CCc2cc(S(=O)(=O)NCCC(=O)Nc3ccc4c(c3)OCCO4)ccc21,-3%,-7,-17,-2.1,5,
CCn1cc(/C=C(\NC(=O)c2ccccc2Cl)C(=O)N2CCOCC2)c2ccccc21,·,3,·,-0.1,·,
COc1ccc(Cl)cc1C(=O)Nc1ccc(Br)c(C)n1,3%,6,·,2.6,-22,
CCOc1ccc(S(=O)(=O)N2CCOCC2)cc1NC(=O)C1CSC2(C)CCC(=O)N12 (stereo not drawn),·,-16,·,-6.1,·,
Fc1ccccc1Cn1nnc(-c2ccc3c(c2)OCO3)n1,0%,6,-20,2.6,-2,
c1ccc(-n2nnnc2NCCc2c[nH]c3ccccc23)cc1,3%,8,-23,3.3,11,
COC(=O)c1ccc(NC(=O)c2cccc(C)c2)cc1,·,-19,·,-0.7,·,
COC(=O)Nc1sc2c(c1C(=O)NC1CC1)CCCCCC2,-4%,-5,-4,-1.8,6,
CCc1ccccc1NC(=O)CSc1nnc(-c2ccco2)n1N,-13%,-7,-30,-4.2,4,
Cc1ccc(-c2nn(C)c(=O)c3ccccc23)cc1S(=O)(=O)NCCN(C)C,-9%,-4,·,0.4,-9,
Cc1ccc(S(C)(=O)=O)cc1S(=O)(=O)Nc1ccccc1,-8%,2,-20,-0.8,-3,
CCc1ccc(N2CCN(C(=O)c3ccc(OC)c(OC)c3)CC2)cc1,0%,3,-24,0.6,12,Arbovirus inh repeat=27
Nc1nc(NC(=O)CCC(=O)O)nn1-c1ccccc1,·,-3,·,2.4,·,
CN(C(=O)c1ccncc1)c1nnc(-c2ccccn2)s1,0%,-10,-43,-2.6,2,
CCOC(=O)c1c(NC(=O)CN2CCN(c3ccc(Cl)cc3)CC2)sc(C)c1C,-1%,5,-33,0.5,6,
CCOC(=O)N1CCN(C(=O)c2ccc3c(=O)n(-c4ccccc4F)c(=S)[nH]c3c2)CC1,7%,1,·,-7.8,2,
O=C1NC(=O)C(Nc2cccc3ccccc23)S1 (stereo not drawn),-6%,-10,-25,-3.1,-9,
CC(C)(C)NS(=O)(=O)c1cccc2nsnc12,0%,1,-32,-1.0,·,
Cc1cc(C)c(NC2=NCC(=O)N2C2CCCCC2)c(C)c1,-10%,-6,20,3.6,-5,
O=C(CSCc1ccccc1F)NCc1ccc(F)cc1,6%,-6,·,2.0,0,
CN1CCc2c(c3c(n2C)CCN(C)C3c2ccc(F)cc2)C1c1ccc(F)cc1 (stereo not drawn),·,-6,7,-1.2,14,
Cc1ccc(C(=O)c2oc3ccccc3c2NC(=O)c2cc(-c3ccccc3O)n[nH]2)cc1,31%,5,-10,-3.0,6,
O=C(NC(=S)Nc1ccccn1)c1cc(-c2ccccc2)nc2ccccc12,16%,1,-14,6.2,-6,
CCOC(=O)Cn1c(=NC(=O)CSC(C)=O)sc2cc(OC)ccc21,0%,-10,-9,1.4,-1,
O=S(=O)(Nc1ncn[nH]1)c1ccc2ccccc2c1,-8%,-3,2,-0.7,0,
COc1ccc(N=C(NN)c2ccc3ccccc3n2)cc1,55µM*,85,-19,3.2,5,
COC(=O)/C=C1/S/C(=N/NC(=O)c2ccccc2OC)NC1=O,·,8,·,4.3,·,
CCO[C@H]1OC(C(=O)N2CCN(Cc3ccccc3)CC2)=C[C@@H](c2cn(C(C)=O)c3ccccc23)[C@@H]1CCCO,12%,5,·,4.8,-15,
CNC(=O)N(C)c1nnc(C(C)(C)C)s1,8%,-6,-33,-0.6,5,
CCc1nc2ccccc2c(C(=O)Nc2cccc(C)c2)c1C,·,5,·,1.6,·,
CC(C)C(=O)NC(c1ccco1)c1ccc2cccnc2c1O (stereo not drawn),-14%,11,-58,-3.8,-28,
O=C(CN1C(=O)c2ccccc2S1(=O)=O)Nc1ccc(S(=O)(=O)N2CCCC2)cc1,-3%,-9,-33,0.9,1,
CC(=O)Nc1ccc(S(=O)(=O)NCc2cc(=O)n(C)c(=O)n2C)cc1,·,-8,·,-4.3,·,
C=CCNC(=S)N(C1CCCCC1)C1CCCCC1,3%,2,·,1.8,7,
Cc1cc2c(s1)c1cnn(CC(=O)NCCc3ccccc3)c(=O)c1n2C,-11%,-7,-43,2.2,-21,
CCCCc1cc(=O)oc2cc(C)cc(OCC(=O)NC(Cc3ccc(Cl)cc3)C(=O)O)c12 (stereo not drawn),·,-4,·,-1.4,·,
COc1ccc(C(C)=O)cc1COC(=O)CSCC(=O)Nc1ccc(C)cc1,·,10,·,3.5,·,
CCOc1ccccc1C(=O)NCC(=O)NCC(c1ccc(OC)cc1)N1CCOCC1 (stereo not drawn),·,-10,·,-0.5,·,
COc1ccccc1-c1ccc(C(=O)O)o1,·,6,-20,0.2,-8,

# Next results:
SMILES,Mtb H37Rv,Mtb bLac sens,YopH inh,RecA intein inh,Arbovirus inh,others
C/C(=N\S(=O)(=O)c1ccc(C)cc1)NC(=S)Nc1ccccc1,3%,-5,·,-3.1,-2,
COC(=O)CN1C(c2ccccc2)=Nc2ccc(Cl)cc2C1c1ccccc1 (stereo not drawn),0%,69,-2,8.0,-15,
CC(=O)N/C(=C/c1ccc2c(c1)OCO2)C(=O)O,3%,1,·,-1.4,-9,
Cc1onc(-c2ccccc2)c1C(=O)c1c[nH]c(C(=O)NCc2ccccn2)c1,-8%,5,·,0.4,9,
O=C(NCC1CCCO1)C(c1cccs1)N(C(=O)c1ccc(-c2ccccc2)[nH]1)C1CCCC1 (stereo not drawn),9%,4,-35,11,7,
Cc1ccccc1C(=O)N/N=C1/SCC(=O)N1Cc1ccc2c(c1)OCO2,5%,-3,-34,4.0,-6,
COc1ccc(-n2ccnc2CN2CCN(C3CCCC3)C(CCO)C2)cc1 (stereo not drawn),0%,-3,·,7.0,-3,
COc1ccc(C)cc1NC(=O)C(Sc1nncn1C)c1ccccc1 (stereo not drawn),-2%,-2,·,0.1,12,
Cc1cc(C)cc(NCc2cc3c(cc2[N+](=O)[O-])OCO3)c1,3%,15,-16,13,-12,
COC(=O)CSc1nnc(C)n1-c1cccc(OC)c1,-5%,1,-108,-2.8,0,
COc1ccc2cc(/C=C3\SC(=S)NC3=O)c(N3CCOCC3)nc2c1,18%,50,-9,11,6,
CC(=O)c1c(O)cc(=O)n(-c2ccccc2)c1-c1ccc(Cl)cc1,-7%,-5,-17,-0.2,4,
COc1ccc(C(=O)NC(=S)N2C[C@H]3C[C@H](C2)c2cccc(=O)n2C3)cc1OC,·,3,·,0.7,·,
Cc1ccc(S(=O)(=O)N2CCC(C(=O)OC(C)C(=O)NC(N)=O)CC2)cc1C (stereo not drawn),-7%,-8,·,-1.1,·,
O=C1CCCN1CC(O)CS(=O)(=O)Cc1ccccc1Cl (stereo not drawn),·,8,·,0.6,·,
Clc1ccc(-c2nnc(NCc3ccccc3)c3ccccc23)cc1,8%,5,-18,-3.4,8,
CCOc1cc(NS(=O)(=O)c2ccc(Cl)cc2)c(OCC)cc1NC(=O)CC(C)C,-2%,·,-20,0.7,4,
COC(=O)CCN(C(=O)c1ccc(N2CCCCC2)c([N+](=O)[O-])c1)c1ccccn1,45%,0,·,0.3,1,
Cc1onc(C(=O)NCc2ccccn2)c1[N+](=O)[O-],·,-2,·,2.6,2,
CCOC(=O)N1CCN(S(=O)(=O)c2ccc3c(c2)CC(C)N3C(C)=O)CC1 (stereo not drawn),·,-6,·,2.6,·,
CCCCOCCCn1c(N)c(C(=O)OCCOC)c2nc3ccccc3nc21,-7%,35,-4,-98,-10,
CC(NC(=O)c1cccc(Cn2cc([N+](=O)[O-])cn2)c1)c1ccc(C(C)(C)C)cc1 (stereo not drawn),6%,-7,-2,-0.5,-8,
CCn1c(=S)ccc2ccc(OC)cc21,-2%,-18,-13,-2.6,-2,
CC(C)CN(C)C(=O)CCc1nnc(Cc2ccc(-c3ccccc3)cc2)o1,4%,8,·,·,6,

# Six compounds picked at random from the list so far:
SMILES,Mtb H37Rv,Mtb bLac sens,YopH inh,RecA intein inh,Arbovirus inh,others
CCn1c(=S)ccc2ccc(OC)cc21,-2%,-18,-13,-2.6,-2,
Clc1ccc(-c2nnc(NCc3ccccc3)c3ccccc23)cc1,8%,5,-18,-3.4,8,
CC(NC(=O)c1cccc(Cn2cc([N+](=O)[O-])cn2)c1)c1ccc(C(C)(C)C)cc1 (stereo not drawn),6%,-7,-2,-0.5,-8,
Cc1onc(C(=O)NCc2ccccn2)c1[N+](=O)[O-],·,-2,·,2.6,2,
COC(=O)CCN(C(=O)c1ccc(N2CCCCC2)c([N+](=O)[O-])c1)c1ccccn1,45%,0,·,0.3,1,
CCCCOCCCn1c(N)c(C(=O)OCCOC)c2nc3ccccc3nc21,-7%,35,-4,-98,-10,

# Only part of the results is shown, so the mix of outcomes need not match the whole.
